Source: PubChem BioAssay (National Center for Advancing Translational Sciences (NCATS))
VACV Venus inh = inhibitors of vaccinia virus (Venus reporter). AID 720580. Vaccinia virus Venus reporter expression, fluorescence. actives 0.46% (n = 330,000). Potency, µM (doses to about 36.5 µM), for the others: at the top dose activity change, negative = inhibition, most hits filed as inhibitors; active means well fitted inhibition curve with a large enough effect; inconclusive means small, poorly fitted or top-dose-only effect; inactive means no such curve, though single readings can be large or run the other way; tested in A549 cells; also: nearly all actives have a fitted effect of over 30% in size; inactives centre near -10
VACV mCherry inh = vaccinia inhibition (mCherry reporter); Vaccinia virus mCherry reporter infection, fluorescence; about a quarter of the inactives have no number; Potency, µM (doses to about 36.5 µM), for the others: at the highest dose activity change, negative = inhibition, actives largely listed as inhibitors; actives 0.63% (n = 310,000); AID 720579; active = well fitted inhibition curve with a large enough effect; inconclusive = small, poorly fitted or top-dose-only effect; inactive = no such curve, though single readings can be large or run the other way; tested in A549 cells; also: nearly all actives have a fitted effect of over 35% in size; inactives centre near -10
Starred values were filed as active, the others as inactive; i = inactive; ? = inconclusive; / = not tested or not shown; [ ] = dose if it differs, or a comment. % is scaled to controls: 0 for no effect and ±100 for the full control effect; potency is read from the fitted curve at half-maximal effect.

SMILES | VACV Venus inh | VACV mCherry inh
CCOc1ccccc1NC(=O)CCN1CCN(S(=O)(=O)c2ccc(Br)cc2)CC1 | -14% | /
COc1cc(OC)c(OC)cc1/C=N/n1c(COc2ccccc2)n[nH]c1=S | -8% | -5%
CSc1nc(-c2ccccc2)nc(NC(C)=O)c1C(C)=O | -16% | -14%
Cc1ccc(C)c(-c2nnc(NC(=O)C3=COCCO3)o2)c1 | 4% | -23%
COc1ccc(CC(=O)NCC2(c3ccc(OC)c(OC)c3)CCCC2)cc1 | -8% | -9%
COc1cccc(NC(=O)C2CCCN(S(=O)(=O)c3cccc4nsnc34)C2)c1 (stereo not given) | -7% | -9%
COc1ccccc1NS(=O)(=O)c1cc(C)ccc1C | -21% | i
Cc1ccc(Cc2c(-c3ccc(C)cc3)nc3ccc(Br)cn23)cc1 | -28% | -16%
COc1ccc(NC(=O)c2ccco2)cc1NC(=O)c1ccccc1[N+](=O)[O-] | -11% | -18%
COc1cc2nc(N3CCCC(O)C3)c(CNCc3ccccc3C(F)(F)F)cc2c(OC)c1OC (stereo not given) | -18% | -11%

A draw from above in order of SMILES length, smallest number first.
SMILES | VACV Venus inh | VACV mCherry inh
CSc1nc(-c2ccccc2)nc(NC(C)=O)c1C(C)=O | -16% | -14%
Cc1ccc(Cc2c(-c3ccc(C)cc3)nc3ccc(Br)cn23)cc1 | -28% | -16%
COc1ccc(NC(=O)c2ccco2)cc1NC(=O)c1ccccc1[N+](=O)[O-] | -11% | -18%

Next part.
SMILES | VACV Venus inh | VACV mCherry inh
COc1ccc(/C=N/NC(=O)c2ccn[nH]2)cc1COc1ccc([N+](=O)[O-])c(C)c1 | -15% | i
COC(=O)[C@@]1(Cc2ccc(F)cc2)[C@H]2c3cc(C(=O)N4CCCC4)n(CCc4ccccn4)c3C[C@H]2CN1C(=O)c1ccccc1 | -29% | i
CCC(CO)Oc1cc(NC(=O)c2ccc(OC)cc2)c2ncn(C(C)C)c2c1 (stereo not given) | -21% | -26%
CCCCCn1c(N2CCC(C(N)=O)CC2)nc2c1c(=O)[nH]c(=O)n2C | -3% | -11%
CCOC(=O)/C(C(C)=O)=C1/OC(=O)c2ccccc21 | -9% | i
C[C@H](CC[C@@H]1OC1(C)C)C1CC[C@H]2[C@@H]3CC=C4C[C@@H](O)CC[C@]4(C)[C@H]3CC[C@]12C (stereo not given in full) | -17% | -5%
Cc1cc(-c2ccc(N)c(C)c2)ccc1N | -7% | -10%
CC(Oc1cccc(F)c1)c1ccnc2nc(/N=C/N(C)C)nn12 (stereo not given) | -9% | -4%
c1ccc(CCN2CCCC2)cc1 | -12% | -9%
COc1ccc(/C=C/C(=O)Nc2ccc(S(=O)(=O)Nc3cc(C)nc(C)n3)cc2)cc1OC | 2% | -9%
CC1=NN(c2nc(-c3ccc(C)cc3)cs2)C(=O)C1N=Nc1ccc2ccccc2c1 (stereo not given) | 14% | /
COC(=O)CC1SC(=O)NC1=Nc1ccc(OC)cc1 (stereo not given) | -8% | /
COc1ccccc1CNC(=O)C1CCC(CNc2c(N3CCOCC3)c(=O)c2=O)CC1 (stereo not given) | 7% | 23%
O=C1CS/C(=N/N=C\c2ccn[nH]2)N1 | -8% | -12%
COc1ccccc1-c1nc(C#N)c(N2CCC(Cc3ccccc3)CC2)o1 | -18% | /
CC(=O)NCCCNC(=S)NCCCN(Cc1ccc(Cl)cc1)c1ccc(Br)cn1 | 11µM* | ?
COc1cccc(OC)c1CC1SC(=O)NC1=O (stereo not given) | -15% | -8%
COC(=O)CNC(=O)c1c(C)cc(=O)oc1C | 3% | 3%
Cc1ccc(/C=C2/Sc3ccc(C(=O)N4CCC5(CC4)OCCO5)cc3NC2=O)cc1 | -2% | -12%
O=C(CCc1nc(-c2ccccc2)no1)Nc1cccnc1 | -2% | -5%

Record cards (already shown). Values in the order: VACV Venus inh | VACV mCherry inh
COc1ccccc1CNC(=O)C1CCC(CNc2c(N3CCOCC3)c(=O)c2=O)CC1 (stereo not given) as listed: 7% | 23%
CC(=O)NCCCNC(=S)NCCCN(Cc1ccc(Cl)cc1)c1ccc(Br)cn1 as listed: 11µM* | ?
COc1ccccc1-c1nc(C#N)c(N2CCC(Cc3ccccc3)CC2)o1 as listed: -18% | /
COC(=O)CC1SC(=O)NC1=Nc1ccc(OC)cc1 (stereo not given) as listed: -8% | /

The listing picks up, starting four compounds before the break.
SMILES | VACV Venus inh | VACV mCherry inh
COc1cccc(OC)c1CC1SC(=O)NC1=O (stereo not given) | -15% | -8%
COC(=O)CNC(=O)c1c(C)cc(=O)oc1C | 3% | 3%
Cc1ccc(/C=C2/Sc3ccc(C(=O)N4CCC5(CC4)OCCO5)cc3NC2=O)cc1 | -2% | -12%
O=C(CCc1nc(-c2ccccc2)no1)Nc1cccnc1 | -2% | -5%
NC(=O)c1nsc(C(=O)N(Cc2ccc(F)cc2)C(C(=O)NC2CCCC2)c2ccco2)c1N (stereo not given) | -9% | -20%
Cc1ccc(S(=O)(=O)Nc2ccccc2C(=O)NCc2cccnc2)cc1 | -9% | i
CCCNS(=O)(=O)c1ccc(NC(=O)c2ccccn2)cc1 | -17% | /
O=C(CC1Sc2ccccc2NC1=O)c1ccc(Br)cc1 (stereo not given) | -18% | i
O=C1c2ccccc2C(Nc2cccnc2)N1Cc1ccccc1 (stereo not given) | 0% | 2%
COc1ccc(NC(=S)N2CCN(S(=O)(=O)c3ccc(F)cc3)CC2)cc1 | -22% | -8%
CCOC(=O)CCc1nn(C)c(=O)c2ccccc12 | -5% | -13%
CCn1c(SCC(=O)Nc2sc(C)c(C)c2C#N)nnc1C(C)C | -4% | -17%
Cc1ccccc1NC(=O)NCCCN1CCN(C2CCCCC2)CC1 | 6% | /
CCCC(C)NC(=O)CSCc1ccc(OC)cc1 (stereo not given) | 0% | 0%
CC(OC(=O)Nc1cccc(Cl)c1)C(=O)O (stereo not given) | -1% | -16%
COC(=O)[C@H](Cc1ccccc1)NCCCn1cnc(C(=O)Nc2ccc(C)c(C)c2)n1 | ? | -2%
O=C(COC(=O)c1cc(S(=O)(=O)N2CCCCC2)ccc1N1CCOCC1)c1ccccc1Cl | -17% | -6%
Clc1ccccc1N=C1NN=C(c2cccs2)CS1 | -4% | -11%
COc1ccc(CN2CCC(CO)(CCOc3ccccc3)CC2)cc1C | -10% | -2%
CCN1CCN(CC(O)COc2ccc3c(c2)CCC3)CC1 (stereo not given) | -2% | i
CCC(CC)c1nnc(NC(=O)CCNC(=O)c2ccccc2Cl)s1 | -6% | i
O=c1ccn(CCOc2ccc(Cl)cc2)c(=O)[nH]1 | -5% | -13%
CC(C)(C)C1CCC(=NNC(=O)C(=O)NCc2ccco2)CC1 (stereo not given) | -12% | -3%
CC1(c2nnc(-c3ccncc3)o2)CC(c2ccccc2)=NO1 (stereo not given) | -5% | -3%
COc1ccccc1CNC(=O)c1oc2ccc(S(=O)(=O)N3CCCC3)cc2c1C | -19% | /
Cc1ccc(S(=O)(=O)N2CCOCC2)cc1NC(=O)CN1CCN(C)CC1 | 0% | -5%
COc1ccc(-c2nc(-c3ccc(Br)cc3)no2)c(OC)c1 | -13% | -18%
O=C(NCC1CCCCC1)c1cccnc1Cl | 3% | -8%
CC1=C(C(=O)Nc2ccc(C)cc2C)C(c2ccc(C)o2)NC(=S)N1 (stereo not given) | -28% | 0%
CCCC(=O)N(c1ccc2oc(C)c(C(C)=O)c2c1)S(=O)(=O)c1ccc(C)c([N+](=O)[O-])c1 | -9% | i
Oc1cccc(-c2nnc(-c3cccc(O)c3)nn2)c1 | -4% | -19%
CCOP(=O)(OCC)/C(C#N)=C/c1cc(OC)ccc1OC | -8% | i
CCCC(=O)Nc1ccc2nn(-c3ccc(OC)cc3)nc2c1 | -20% | -16%
COc1ccc(S(=O)(=O)NCc2nc(N3CCCC3)c3cccc(C)c3n2)cc1OC | 8% | -9%
Cc1ccc(C)c(Cn2c(=O)n(Cc3ccc(C(=O)NC4CCN(Cc5ccccc5)CC4)cc3)c(=O)c3ccccc32)c1 | -12% | -18%
O=C(CN1CCN(c2ccccn2)CC1)Nc1cccc(Br)c1 | -5% | ?
CC(C)C(=O)NC(=S)Nc1ccc(S(=O)(=O)Nc2nccs2)cc1 | -3% | 3%
OC(c1ccc(F)c(F)c1)c1nc(-c2cccc3cccnc23)cs1 (stereo not given) | -11% | 3%
CN(C)C(=O)c1ccc(-c2nc(Nc3ccncc3)c3ccccc3n2)cc1 | 0% | i
CC(C)[C@H](NC(=O)c1ccccc1F)C(=O)Nc1ccc(F)c(F)c1 | -14% | -12%
COC(=O)[C@]1(Cc2ccccc2)N[C@H](c2ccc(-c3ccc(F)cc3)cc2)[C@@H]2C(=O)N(C)C(=O)[C@@H]21 | ? | -16%
N#Cc1ccccc1OCCOCCNC1CCCC1 | -11% | i
CCN(CC)c1ccc(C(=O)O)cc1 | -14% | -10%
CCOC(=O)[C@]12CCC=C1N(Cc1ccccc1)C(=O)[C@H](CC(=O)N1CCCCC1)C2 | -2% | -6%
CCOc1ccc(C(=O)NCC(=O)N2CCC(C)CC2)cc1OCC | -6% | -2%
O=C(Nc1ccc(Cl)c(Cl)c1)Nc1ccccc1NS(=O)(=O)c1cccs1 | 4% | i
CC(=O)Nc1cccc(-c2cc(NC(C)=O)c3ncc(-c4ccc(F)cc4)n3c2)c1 | -24% | -5%
COC(=O)CSc1nc(N)c(NC(=O)c2ccc(OC)c(OC)c2)c(=O)[nH]1 | 7% | -8%
Cc1cc(S(=O)(=O)N2CCN(Cc3ccc4c(c3)OCO4)CC2)cc(C)c1N1CCCC1=O | -20% | ?
CC[C@H](C)[C@@H](C(=O)NCCCCCCCCCCC(=O)N1CCNCC1)n1cc(CCCCN=C(N)N)nn1 | 1% | i
Cc1ncoc1C(=O)N1CCOc2ccc(CN3CCN(c4ccccn4)CC3)cc2C1 | -9% | -11%
CCCC(=O)OCCNc1cc(SCCC(=O)OC)c2nonc2c1[N+](=O)[O-] | -9% | 0%
O=C(C[C@@H]1CC[C@H](NC(=O)Cc2ccccn2)[C@@H](CO)O1)NCCc1ccccc1 | -7% | -11%
CCOc1ccc(N(CC(=O)Nc2ccccc2CC)S(=O)(=O)c2c(C)[nH]c(=O)[nH]c2=O)cc1 | 1% | -8%

Additional structures follow:
SMILES | VACV Venus inh | VACV mCherry inh
COc1cccc(-n2c(SCC(N)=O)nnc2-c2c[nH]c3ccccc23)c1 | -18% | i
COc1ccc(CNC(=O)C[C@H]2C[C@H](C(=O)N3CCCCC3)[C@@]3(CCc4ccccc4)c4[nH]c5ccc(Cl)cc5c4CCN3C2=O)cc1OC | ? | -22%
CCOC(=O)c1nnn2c1nc(Nc1cccc(C(F)(F)F)c1)c1ccccc12 | -16% | -14%
Nc1cnc(Br)cc1Br | -2% | -4%
Cc1cc(C(=O)CCC(=O)NCc2ccccc2F)c(C)s1 | -18% | -17%
O=C(C1=C[C@H](c2ccc3c(c2)OCO3)C[C@H](OCCCCO)O1)N1CCOCC1 | -4% | ?
Cc1ccccc1NC(=S)N(C)CCc1ccccn1 | -11% | -14%
Cc1cc(OC(=O)c2cc(-c3ccc4c(c3)OCCO4)on2)ccc1Cl | 0% | -1%
COc1cccc(OC)c1OCCCOc1c(OC)cccc1OC | -8% | -15%
COc1ccc(CCC(C)NCC(C)c2ccccc2)cc1 (stereo not given) | -22% | -15%

Quoted at random: two entries already listed.
SMILES | VACV Venus inh | VACV mCherry inh
COc1ccc(CCC(C)NCC(C)c2ccccc2)cc1 (stereo not given) | -22% | -15%
Nc1cnc(Br)cc1Br | -2% | -4%

Later entries.
SMILES | VACV Venus inh | VACV mCherry inh
c1ccc2c3c([nH]c2c1)CNCC3 | -13% | -2%
Cc1cc(C(=O)COC(=O)CNS(=O)(=O)c2ccc3ccccc3c2)c(C)n1-c1ccccc1 | 1% | -3%
CCOC(=O)C(C)c1ccc2cc(OC)ccc2c1 (stereo not given) | -8% | -6%
CC(C)CN(C(=O)CCCc1nc2ccccc2c(=O)[nH]1)c1c(N)n(Cc2ccccc2)c(=O)[nH]c1=O | -10% | -11%
CC1(C(=O)NCc2cccnc2)CCN1C(=O)c1cccc(F)c1 (stereo not given) | 4% | -6%
Cc1noc(C)c1NC(=O)Nc1ccc2c(c1)C(=O)N([C@H](C)CO)C[C@H](C)[C@@H](CN(C)C(=O)Nc1c(C)noc1C)O2 | -1% | i
COc1ccc(-c2cc(-c3ccccc3)nc(NN)n2)cc1OC | -7% | ?
O=C(CCCN1C(=O)NC2(CCCC2)C1=O)NCc1ccccc1 | -15% | -15%
O=C(Cc1cccs1)NCc1ccncc1 | -5% | -8%
CCCS(=O)(=O)NC(=O)C1(C)CCCN(C(=O)Cc2ccc3ccccc3c2)C1 (stereo not given) | 5% | 58%[activator]
Nc1nc(Nc2ccc(Cl)cc2)nc(NCc2ccco2)c1[N+](=O)[O-] | -8%[7.34 µM] | i[7.34 µM]
CCc1ccccc1NC(=O)C1=CC(c2ccc3c(c2)OCO3)=NS(=O)(=O)N1C | -1% | 2%
C[C@H](CO)N1C[C@H](C)[C@@H](CN(C)C(=O)Nc2ccc3c(c2)OCO3)Oc2c(NC(=O)C3CCCCC3)cccc2C1=O | -15% | i
O=[N+]([O-])c1ccc(/C=N/NC(=S)Nc2ccccc2C(F)(F)F)o1 | 4% | -9%
O=C(CN1c2ccccc2Sc2ccccc21)NNC(=S)Nc1ccc(Cl)cc1Cl | -23% | -28%
O=[N+]([O-])c1ccc(-c2csc(COc3ccccc3)n2)cc1 | -16% | -1%
CC(C)(C)c1ccc(C(=O)NN2C(=O)CSC2=S)cc1 | 22% | 2%
COC(=O)c1c(C)[nH]c(C(=O)OC(C)C(=O)NC2CCCCC2C)c1C (stereo not given) | -21% | -10%
COc1ccccc1NC(=O)Nc1c(C)nn(C)c1C | -12% | i
